# High-throughput results: PubChem BioAssay, National Center for Advancing Translational Sciences (NCATS)
# Vaccinia mCherry: inhibitors of vaccinia virus infection (mCherry reporter signal); 0.63% of 310,000 active; Potency, µM (top dose mostly 36.5 µM), without a hit: top-dose activity change, negative = inhibition, actives largely listed as inhibitors; Vaccinia virus mCherry reporter infection, fluorescence; about a quarter of the inactives have no number; AID 720579; active = well fitted inhibition curve with a large enough effect; inconclusive = small, poorly fitted or top-dose-only effect; inactive = no such curve, though single readings can be large or run the other way; tested in A549 cells; note: nearly all actives have a fitted effect of over 35% in size; inactives centre near -10
# Vaccinia Venus: inhibitors of vaccinia virus (Venus reporter); Vaccinia virus Venus reporter expression, fluorescence; Potency, µM (series often up to 36.5 µM), for the others: top-dose activity change, negative = inhibition, actives largely listed as inhibitors; 0.46% of 330,000 active; AID 720580; active means well fitted inhibition curve with a large enough effect; inconclusive means small, poorly fitted or top-dose-only effect; inactive means no such curve, though single readings can be large or run the other way; tested in A549 cells; note: nearly all actives have a fitted effect of over 30% in size; inactives centre near -10
# * hit, by the source's call; i = inactive; ? = inconclusive; . = not tested or not shown; & = joins results of further samples; [ ] = dose if it differs, or a comment. % is set by controls: 0 for no effect and ±100 for the full control effect; potency is the fitted concentration of half-maximal effect.
Compound	Vaccinia mCherry	Vaccinia Venus
CCOC(=O)c1cc(-c2ccccc2)n(CC(=O)N(C)c2ccc(OC)cc2)c1C	-8%	-4%
Cc1cc(C)cc(-n2ccn(CC(=O)Nc3cc(C)ccc3C)c(=O)c2=O)c1	-12%	-7%
OC(c1ccccc1)c1cccnc1 (configuration not stated)	-17%	-7%
Cc1ccc(Nc2c([N+](=O)[O-])c(=O)oc3ccccc23)cc1	?	?
O=C(CN(C(=O)CNC(=O)c1cccs1)c1ccc2c(c1)OCCO2)NC1CCCC1	-5%	-7%
COc1ccc(CN(C(=O)Nc2cc(C)ccc2C)C2CCN(C(C)=O)CC2)cc1	-12%	-8%
CC(C)NC(=O)c1cc2c(s1)CCCC2	-28%	-16%
S=c1[nH]ncn1/N=C/c1cccc(Oc2ccccc2)c1	-12%	-17%
COc1ccc(-c2[nH]nc3oc(=O)c(CCO)c(C)c23)cc1	-3%	-8%
Cc1ccc(S(=O)(=O)N2C[C@H]3[C@H]4C(=O)N(c5ccccc5)C(=O)[C@H]4C[C@H](OC(=O)NC4CC4)[C@@]3(O)C2)cc1	i	-11%
CS(=O)(=O)Nc1ccccc1Oc1ccccc1	.	-8%
O=C(NCCC1=CCCCC1)C(=O)NCC1OCCCN1S(=O)(=O)c1ccccc1 (configuration not stated)	i	-2%
Cc1oc2ncnc(N3CCOCC3)c2c1C(=O)NCc1ccccc1	-18%	-5%
CCC1CN(Cc2cn[nH]c2-c2ccc(OC)cc2)Cc2cc(OC)ccc2O1 (configuration not stated)	-25%	-13%
CCOc1cc(C2C3=C(CCCC3=O)N(C)C3=C2C(=O)CCC3)cc(Cl)c1O	.	-10%
Cc1c(C(=O)Nc2ccc(-n3cnnn3)cc2)oc2ccccc12	-14%	-8%
O=S(=O)(Nc1ccc(-c2nc3cccnc3s2)cc1)c1ccccc1F	-9%	-10%
Cc1cc(C)c2c(CC(=O)Nc3ccc(S(=O)(=O)N4CCCCC4)cc3)coc2c1	-14%	-12%
CCOc1ccccc1NC(=O)C(OC(=O)c1cnc(C)cn1)c1ccccc1 (configuration not stated)	i	-28%
CC(C)(C)N(NC(=O)c1ccccc1)C(=O)c1ccc(C(=O)N(NC(=O)c2ccccc2)C(C)(C)C)cc1	?	-17%
O=C(Cn1cc(SCc2c(F)cccc2Cl)c2ccccc21)N1CCCCC1	-11%	-2%
COc1ccccc1CN1CC(C(=O)NCCSc2nnnn2C)CCC1=O (configuration not stated)	-1%	2%
CCCCC1=CC2=C(c3ccco3)C(=O)C(C)(OC(=O)c3ccc(OC)cc3)C(=O)C2=CN1CCOC (configuration not stated)	-17%	-19%
Cc1ccc(C(=O)N2CCc3ccccc32)o1	-20%	-13%

# One compound at a time (already shown). Order of values: Vaccinia mCherry | Vaccinia Venus
# Profile of `CCOC(=O)c1cc(-c2ccccc2)n(CC(=O)N(C)c2ccc(OC)cc2)c1C` → -8% | -4%
# Profile of `O=C(NCCC1=CCCCC1)C(=O)NCC1OCCCN1S(=O)(=O)c1ccccc1` (configuration not stated) → i | -2%
# Profile of `Cc1cc(C)c2c(CC(=O)Nc3ccc(S(=O)(=O)N4CCCCC4)cc3)coc2c1` → -14% | -12%

# (more compounds)
Compound	Vaccinia mCherry	Vaccinia Venus
CC1CCN(CCCOc2ccc(OCc3ccccc3)cc2)CC1	-24%	-9%
COc1ccc(/C=C\C(=O)O[C@@H]2C(O)C(O[C@@H]3OC(C)[C@H](O[C@@H]4OCC(O[C@H]5O[C@H](CO)[C@@H](O)C(O)C5O)C(O)C4O)C(O)C3O)[C@H](OC(=O)[C@]34CCC(C)(C)C[C@@H]3C3=CCC5[C@@]6(C)CC(O)C(O[C@@H]7OC(CO)C(O)[C@H](O)[C@H]7O)[C@@](C)(C(=O)O)C6CC[C@@]5(C)[C@]3(CO)CC4)O[C@H]2C)cc1 (some centres not stated)	?	11µM*
CNC(=O)c1ccccc1NC(=O)c1c(O)c2c([nH]c1=O)CCCC2	-4%	4%
Cc1nc2c([N+](=O)[O-])c(C)c(C)cc2[nH]1	-15%	-13%
COc1ccc(NC(=O)C2=C(C)NC(=S)NC2c2ccc(O)c(OC)c2)cc1 (configuration not stated)	-3%	1%
C/C(Cl)=C\Cn1c(N2CCCC2)nc2c1c(=O)[nH]c(=O)n2C	.	-11%
CCC(C(=O)NCc1ccc(OC)c(OC)c1)n1nc(C)c2c(C)n(-c3ccc(C)cc3)nc2c1=O (configuration not stated)	-8%	?
C[C@H](CO)N1C[C@H](C)[C@@H](CN(C)S(=O)(=O)c2ccccc2)Oc2ccc(NC(=O)Nc3ccccc3)cc2C1=O	?	10µM*
O=c1oc2c(CN3CCCCC3)c(O)ccc2c2c1CCCC2	-7%	-13%
CNC[C@H]1OCc2ccccc2-c2ccccc2C(=O)N([C@@H](C)CO)C[C@H]1C	?	-8%
Cc1cc(C)c2c(c1)C1(OCCO1)C(=O)N2	i	-10%
Cn1nc(C(=O)NCCOc2ccccc2)c2ccccc2c1=O	-15%	-15%
CC1(C2CC2)NC(=O)N(CC(=O)N2CCN(c3cccc(C(F)(F)F)c3)CC2)C1=O (configuration not stated)	-1%	-11%
O=C(CSc1nc(C2CCCCC2)n(-c2ccccc2)n1)NCCN1C(=O)CSC1=O	-12%	-11%
CCOc1ccc(CNC(=O)C2CCN(S(=O)(=O)c3cn(C)cn3)CC2)cc1OC	-13%	-9%
CCCS(=O)(=O)NC(=O)C1(C)CCN(C(=O)c2c(C)noc2C)C1 (configuration not stated)	45%[activator]	3%
O=C(O)c1oc2ccccc2c1CN1CCN(c2ccccc2)CC1	.	2%
CCOC(=O)c1ccc(N2C(=O)c3[nH]nc(-c4ccc(OC)cc4)c3C2c2ccc(C)cc2)cc1 (configuration not stated)	?	?
CCOc1ccc(/C=N/OCC(=O)NCc2cccs2)cc1	?	-21%
COc1cccc(C(=O)NNC(=O)/C=C/c2ccccc2)c1	-12%	-9%
COC(=O)c1scc(-c2ccccc2)c1S(=O)(=O)Nc1ccc(C)c(Cl)c1	-4%	5%
CC(C)(C)C(=O)CN1C(=O)NC2(CCOc3ccccc32)C1=O (configuration not stated)	-17%	-11%
CCOC(=O)c1ccc(-c2c(C)cc3oc(=O)cc(-c4ccccc4)c3c2C)cc1	-12%	-13%
Cc1cccc(N2CCN(S(=O)(=O)c3ccc4oc(=O)c5ncn(C)c5c4c3)CC2C)c1 (configuration not stated)	-16%	0%

# Next part
# Fields: Vaccinia mCherry	Vaccinia Venus
> Cc1ccc(NC(=O)c2ccc(C)cc2)cc1
  -14%	-9%
> COc1ccc(NC(=O)COC(=O)[C@@H](NC(=O)c2c(F)cccc2F)C(C)C)cc1
  i	5%
> O=C(Cc1ccc(Br)cc1)N(Cc1ccccc1)c1ccccn1
  i	2%
> COc1ccc(S(=O)(=O)N2CCCCCC2)cc1NC(=O)c1ccccc1S(C)(=O)=O
  -12%	-5%
> Cc1cccc(-n2nnc(-c3nc(-c4ccccc4)no3)c2N)c1C
  5%	0%
> O=c1[nH]/c(=C/c2ccc3c(c2)OCO3)c(=O)[nH]/c1=C\c1ccc2c(c1)OCO2
  16%	8%
> CCOc1ccc(C(=O)Cc2cc(OC)c(OC)cc2[N+](=O)[O-])cc1
  -14%	-12%
> CCCCNS(=O)(=O)c1ccc2nc(-c3cccnc3)cc(C(=O)NC(C)CC)c2c1 (configuration not stated)
  -10%	-2%
> CCOC(=O)N1CCc2c(sc3c2C(=O)NC(c2cc(OC)c(O)c(OC)c2)N3)C1 (configuration not stated)
  -14%	-8%
> CC1CC(C)CN(C(=O)CCNC(=O)Cn2cnc3ccccc3c2=O)C1 (configuration not stated)
  -5%	-24%
> COC(=O)c1ccccc1NC(=O)CSc1nc2ccccc2nc1Cc1ccccc1OC
  -11%	-1%
> CCOC(=O)c1cc(OC)c2cccc(CN3CCCC(C)(C(=O)NCCOC)C3)c2c1 (configuration not stated)
  4%	-6%
> Cc1ccc(CCNC(=O)CS(=O)Cc2nc(-c3ccccc3Cl)oc2C)cc1 (configuration not stated)
  -11%	-9%
> COC(=O)c1ccc2nc(-c3ccco3)c(Cc3ccc(OC)cc3C)n2c1
  i	0%
> Cc1cc(Sc2nc(NC(C)(C)C)nc(N3CCOCC3)n2)nc(Cl)n1
  -16%	-7%
> COc1ccc(CCNC(=O)c2c(O)c3cc(OC)c(OC)cc3[nH]c2=O)cc1OC
  -6%	-20%
> N#C/C(=C/c1cn(-c2ccccc2)nc1-c1cccc(S(=O)(=O)N2CCOCC2)c1)C(=O)NCc1ccco1
  -2%	?
> Cc1cccc(C)c1NC(=O)C(c1cccc(F)c1)N1CCN(C)CC1 (configuration not stated)
  -11%	-11%
> CCCN1CCN(CCCNC(=O)c2ccc3nc(N4CCC(C)CC4)sc3c2)CC1
  i	-3%
> NC(=O)C1=C[C@@H](c2csc3ccccc23)C[C@@H](OCc2ccc(CO)cc2)O1
  ?	?

# The last 2 compounds of the part above are carried over, then new ones follow:
# Fields: Vaccinia mCherry	Vaccinia Venus
> CCCN1CCN(CCCNC(=O)c2ccc3nc(N4CCC(C)CC4)sc3c2)CC1
  i	-3%
> NC(=O)C1=C[C@@H](c2csc3ccccc23)C[C@@H](OCc2ccc(CO)cc2)O1
  ?	?
> O=C(CCCCCN1C(=O)c2ccccc2C1=O)Nc1ccc(F)cc1
  -12%	-10%
> CCc1c(O)c(-c2ccccc2)c(=O)n(-c2ccccn2)c1-c1ccccc1
  i	-7%
> Cc1cccc(N2CCN(CCCNC(=O)c3nnc(Cc4c(F)cccc4Cl)o3)CC2C)c1 (configuration not stated)
  i	-21%
> CCC1=Nc2cc(C(=O)NCCCOC(C)C)ccc2Sc2ccc(C)cc21
  ?	?
> Cc1ccccc1CSc1nc2n(n1)C(c1cccs1)C1=C(CCCC1=O)N2 (configuration not stated)
  ?	?
> CN(Cc1ccccc1F)C(=O)CNC(=O)Cc1cccc2ccccc12
  -14%	-6%
> CCC(=O)Nc1cccc(-c2nc3ccccc3o2)c1
  -27%	-13%
> CN(C)Cc1csc(NC(=O)Nc2ccccc2C(C)(C)C)n1
  -12%	-9%
> COc1ccc2c(c1)CC(N1CCN(C)CC1)c1cc(OC)ccc1S2 (configuration not stated)
  ?	?
> O=C(c1ccc([N+](=O)[O-])cc1)N(c1ccccn1)c1ccccn1
  -3%	-4%

# The last two records of the section above are carried over, then new ones follow.
# Fields: Vaccinia mCherry	Vaccinia Venus
> COc1ccc2c(c1)CC(N1CCN(C)CC1)c1cc(OC)ccc1S2 (configuration not stated)
  ?	?
> O=C(c1ccc([N+](=O)[O-])cc1)N(c1ccccn1)c1ccccn1
  -3%	-4%
> COCc1nnc(NC(=O)CC(C)C)s1
  2%	2%
> COc1ccc2[nH]c(C(=O)N3CCN(Cc4ccccc4)CC3)cc2c1OC
  -18%	-10%
> O=C(NCc1ccccc1)C(c1ccco1)N(C(=O)c1cnccn1)c1ccc(F)cc1 (configuration not stated)
  -19%	-13%
> NC(=O)C(CC(=O)O)NC(=O)[C@@H]1CCOc2c(I)cc([N+](=O)[O-])cc2C(=O)N[C@@H](CO)C(=O)N[C@@H](Cc2ccc(O)cc2)C(=O)N1 (some centres not stated)
  i	-5%
> O=C(Cc1ccccc1)NC(=S)Nc1ccc2oc(-c3ccccc3F)nc2c1
  .	-14%
> O=C(C1CC(=O)N(c2ccccc2)C1)N1CCC(c2nc3ccccc3[nH]2)CC1 (configuration not stated)
  -9%	-1%
> CCCOP(=O)(c1ccc(N(C)C)cc1)C(O)c1ccc(N(C)C)cc1 (configuration not stated)
  -18%	-18%
> Cc1ccc(S(=O)(=O)Cn2nnnc2C(C)N2CCN(C(=O)c3ccco3)CC2)cc1 (configuration not stated)
  -27%	-26%
> Cc1[nH]c(=O)[nH]c(=O)c1CSCC(=O)OCC(=O)Nc1ccccn1
  i	15%
> Cc1ccc(Cn2nnc3c(=O)[nH]c(C4CCN(C(=O)Cc5cccs5)CC4)nc32)cc1
  i	-14%

# Some values from above.
# Vaccinia mCherry with Cc1ccc(NC(=O)c2ccc(C)cc2)cc1 = -14%
# Vaccinia mCherry with O=S(=O)(Nc1ccc(-c2nc3cccnc3s2)cc1)c1ccccc1F = -9%
# Vaccinia Venus with Cc1ccc(C(=O)N2CCc3ccccc32)o1 = -13%
# Vaccinia mCherry with COCc1nnc(NC(=O)CC(C)C)s1 = 2%
# Vaccinia Venus with Cc1cc(Sc2nc(NC(C)(C)C)nc(N3CCOCC3)n2)nc(Cl)n1 = -7%
# Vaccinia mCherry with CNC(=O)c1ccccc1NC(=O)c1c(O)c2c([nH]c1=O)CCCC2 = -4%

# (further entries)
# Fields: Vaccinia mCherry	Vaccinia Venus
> COC(=O)C(NC(=O)c1ccco1)(Nc1ccc(Br)cn1)C(F)(F)F (configuration not stated)
  .	-29%
> CCOC(=O)c1ccc(NC(=O)C2=C(C)Nc3nc(CCCO)nn3C2c2ccc(OC)cc2)cc1 (configuration not stated)
  -3%	-8%
> COc1ccc(C(=O)Nc2ccc3c(c2)CCCN3S(=O)(=O)c2ccc(C)cc2)c(OC)c1
  -7%	-11%
> COc1ccc(C2=NOC(C(=O)Nc3cc(C)on3)C2)cc1 (configuration not stated)
  -24%	1%
> CC(C)CN1CCC(=O)N([C@H](COc2ccccc2)c2ccccc2)CC1
  -1%	-6%&-16%
> Cc1nc(C)c(CC(=O)N/N=C/c2ccc(O)cc2)c(=O)[nH]1
  -7%	-7%
> COc1ccc(C(NC(=O)c2cccnc2)c2cc(Cl)c3cccnc3c2O)cc1OC (configuration not stated)
  -11%[1.46 µM]	?
> COc1ccc(CCNC(=O)c2c(C)oc3nc(C)nc(N4CCOCC4)c23)cc1OC
  i	-11%
